Compound activity as filed in PubChem BioAssay.
PV pol inh: poliovirus RdRp elongation inhibitors, primary screen, biochemical, fluorescence polarization, total intensity; AID 588519, 2011; poliovirus polymerase elongation; hits give low values; actives 0.66% (n = 150,000); % elongation, % (compound at 16.7 µg/mL); Genome polyprotein (Poliovirus type 1 (strain Mahoney)), P03300; in the data active = % elongation below about 90%; also: some results filed as inactive read as strong as hits
Target sequence (P03300 1749-2209 limits assumed): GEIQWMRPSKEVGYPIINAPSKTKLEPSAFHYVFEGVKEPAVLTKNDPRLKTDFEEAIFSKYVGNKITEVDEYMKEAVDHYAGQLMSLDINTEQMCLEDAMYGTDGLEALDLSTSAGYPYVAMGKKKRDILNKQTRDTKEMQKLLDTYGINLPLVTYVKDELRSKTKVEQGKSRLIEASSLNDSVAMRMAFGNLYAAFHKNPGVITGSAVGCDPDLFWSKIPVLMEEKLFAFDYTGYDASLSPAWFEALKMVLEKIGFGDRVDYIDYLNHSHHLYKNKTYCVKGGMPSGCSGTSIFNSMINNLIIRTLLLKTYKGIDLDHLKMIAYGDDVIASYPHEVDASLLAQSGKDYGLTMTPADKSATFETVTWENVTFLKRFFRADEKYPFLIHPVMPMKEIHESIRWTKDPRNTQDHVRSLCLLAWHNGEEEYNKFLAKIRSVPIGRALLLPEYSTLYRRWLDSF
MbtI inh: MbtI salicylate synthase inhibitors, primary screen, biochemical, fluorescence intensity; inhibition, %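 (about 17 µg/mL by stock and volumes)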; actives 0.89% (n = 100,000); P9WFX0; purified MbtI enzyme, fluorescence intensity read-out; AID 493033, 2011;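 active = above 50% in both replicates, above 80% if mildly self-fluorescent; inactive = the rest, strongly fluorescent compounds included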;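 also: 0% = mean of negative and 100% = mean of positive controls; one replicate is shown; some compounds called inactive have numbers as strong as hits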
Target sequence (P9WFX0 whole entry, looked up): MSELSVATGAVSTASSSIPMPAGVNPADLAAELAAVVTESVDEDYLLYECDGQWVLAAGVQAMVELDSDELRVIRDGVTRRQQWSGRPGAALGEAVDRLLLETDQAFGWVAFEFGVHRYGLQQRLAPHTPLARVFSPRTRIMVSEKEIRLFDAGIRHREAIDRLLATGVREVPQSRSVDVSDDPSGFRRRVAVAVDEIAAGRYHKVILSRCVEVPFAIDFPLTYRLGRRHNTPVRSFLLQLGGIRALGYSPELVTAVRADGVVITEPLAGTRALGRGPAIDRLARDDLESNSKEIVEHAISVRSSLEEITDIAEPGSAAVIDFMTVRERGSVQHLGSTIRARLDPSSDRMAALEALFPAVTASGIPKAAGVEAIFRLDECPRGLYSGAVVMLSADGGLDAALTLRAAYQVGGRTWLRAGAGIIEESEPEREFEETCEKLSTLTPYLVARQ
MenB inh: M. tuberculosis MenB inhibitors, primary screen, biochemical, absorbance; 1,4-dihydroxy-2-naphthoyl-CoA synthase (Mycobacterium tuberculosis (strain ATCC 25618 / …; MenB enzyme assay, absorbance read-out; some hits fall short of the stated cut; inhibition, %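 (about 12 µg/mL by stock and volumes)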; actives 0.43% (n = 100,000);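 active = mean of two replicates above 30%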;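 also: 0% = no compound and 100% = wells with inactive enzyme; the first replicate is given; strong numbers were not always called active; inactives centre near -10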
PV pol inh intensity: further read-out of PV pol inh, marked with its call; % elongation; measured here: total intensity read-out; formula for this scale not given here;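 total fluorescence in place of polarization; lower means less elongation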
Numbers without * were called inactive; / = no result given; & = joins results of further samples.

SMILES	PV pol inh	PV pol inh intensity	MbtI inh	MenB inh
CCOC(=O)c1c(C)c(C#N)c(NC(=O)c2ccccc2)n1-c1ccccc1	105	102	1	-12
O=C(COC(=O)c1ccc(F)c(S(=O)(=O)N2CCOCC2)c1)NCc1ccc2c(c1)OCO2	105	109	-8	-24
Cc1cc(C)cc(NC(=O)C(Sc2nnc(C)n2C2CC2)c2ccccc2)c1 (configuration not stated)	98	101	-7	-10
CCC1C=CCC2C(=O)N(CC(=O)NCCC3=CCCCC3)C(=O)C12 (configuration not stated)	104	102	4	-22
OC(Cn1ccc2ccccc21)Cn1c(Cc2ccccc2)nc2ccccc21 (configuration not stated)	100	101	-6	15
CC1CC(C)CN(S(=O)(=O)c2cccc(C(=O)OCCN3CCCC3=O)c2)C1 (configuration not stated)	103	104	-5	9
CCCNC(=O)COc1ccc2ccc(=O)oc2c1	101	106	134	13
O=C(O)C1C2C=CC3(CN(c4ccc(Cl)c(F)c4)C(=O)C13)O2 (configuration not stated)	100	98	/	8
Cc1ccc(CCNC(=O)C2CCC(Cn3c(=O)[nH]c4ccsc4c3=O)CC2)cc1 (configuration not stated)	101	101	-7	-5
Nc1ccc(C2CCCc3nonc32)c2nonc12 (configuration not stated)	103	102	2	-169
CCc1nc2cccnc2n1-c1ccc(CC(=O)NCCN2CCOCC2)cc1	105	106	2	-19
O=C(CSc1nnc2ccccn12)N1CCc2ccccc2C1	103	107	-8	/
NS(=O)(=O)c1ccc(NC(=O)COC(=O)c2cc3ccccc3o2)cc1	102	100	14	8
COc1cc(C)c(CN2CCN(C(=O)c3cc(S(=O)(=O)N(C)C)ccc3Cl)CC2)cc1OC	98	97	-9	-13
CN(C)C(=O)C(OC(=O)Cc1n[nH]c(=O)c2ccccc12)c1ccccc1 (configuration not stated)	97	94	7	-5
CN(C)S(=O)(=O)c1cccc(COC(=O)c2cccnc2N)c1	104	109	110	6
CCN(CC)c1ccc(/C=C/c2cc(=O)cc(C)o2)cc1	/	/	-4	-235
CCCN(C1=NC2CS(=O)(=O)CC2S1)c1ccccc1F (configuration not stated)	101	107	-4	-9
COc1ccc(NC(=O)c2ccc3c(=O)n(Cc4ccco4)c(=S)[nH]c3c2)c(OC)c1	99	100	7	-17
CN1CCC(N(Cc2ccco2)C(=O)c2cc3sccc3n2Cc2ccccc2)CC1	102	101	8	-22
COc1cccc(NCc2nnc(SCc3nc4ccccc4o3)n2C2CCCCC2)c1	97	104	-4	-16
O=C(c1ccco1)N1CCN(C(=O)C2CCCN(S(=O)(=O)Cc3ccccc3)C2)CC1 (configuration not stated)	101	102	-1	20
O=C1C(=O)c2ccccc2C(O)=C1c1ccc(Cl)cc1	99	95	29	-26
CCOC(=O)c1c(C)noc1-c1ccco1	103	113	1	-8
CCCN(CCC)S(=O)(=O)c1ccc(C(=O)N2CCC(=O)c3ccccc32)cc1	103	101	3	16
CC(=O)N(Cc1ccccc1)Cc1cc2ccccc2[nH]c1=O	101	99	-7	-17
COC(=O)c1ccc(Nc2nnc(Cc3ccc(Cl)cc3)c(=O)[nH]2)cc1	101	100	-2	-1
Nc1cc(Cl)ccc1C(=O)OC1CCOC1=O (configuration not stated)	108	109	101	14
N#Cc1cccnc1Nc1ccc(Cl)c(Cl)c1	104	107	10	-8
O=C(O)c1ccc(I)o1	101	101	5	-10
CCc1ccc(NC(=O)CC2C(=O)N(c3ccccc3)C(=O)N2C2CCCC2)cc1 (configuration not stated)	101	103	-19	0
CC(C)CC(=O)NC(=S)Nc1ccc(NC(=O)c2ccco2)cc1	100	103	-6	-28
COc1ccc(C2=C(Nc3ccc(C(=O)N4CCOCC4)cc3)c3ccccc3C2=O)cc1	103	105	/	-1
COc1cccc(-c2nnc(SCC(=O)NCCOc3ccccc3)n2-c2ccccc2)c1	105	100	/	-25
CC1CCc2c(sc(NC(=O)C3CCCN3S(=O)(=O)c3cccs3)c2C(N)=O)C1 (configuration not stated)	104	104	50	-23
CC(C)CC(=O)NCc1ccc2c(c1)OCO2	104	106	/	-7
O=C(c1ccc(Cl)cc1Cl)N1CCN(C(=O)C2CCCCC2)CC1	104	107	0	-10
CN(C)c1ccc(C=NCC(O)CN=Cc2ccc(N(C)C)cc2)cc1 (configuration not stated)	99	102	-17	-26
CCOC(=O)N1CCC(n2c(=S)[nH]c3ccccc3c2=O)CC1	101	103	7	-3
Nc1cc(C(F)(F)F)c[nH]c1=O	102	109	32	-3
NNC(=O)c1c(O)c2c([nH]c1=O)CCCC2	103	108	-1	-13
CCCN1CC=C2C(C#N)=C(N)C(C#N)(C#N)C(c3cccc(OC)c3)C2C1 (configuration not stated)	86	127	15	-43
COc1ccc(C(=O)NCc2ccc3c(c2)OCO3)cc1	101	96	5	-27
CCNC(=O)N1c2cc(C)ccc2C(C)=CC1(C)C	103	104	19	8
Cc1onc(-c2ccccc2)c1-c1nnc(-c2ccccc2C(F)(F)F)o1	104	103	0	-26
CC(C)(C)C(=O)Cn1nnc(-c2ccc(C(F)(F)F)cc2)n1	104	108	1	4
Cc1cc2cc(CCNC(=O)c3c(-c4ccccc4Cl)noc3C)c(=O)[nH]c2cc1C	102	103	3	11
Cc1ccc2[nH]cc(NC(=O)NCCO)c(=O)c2c1	102	101	88	5
CC(=O)NC(C)C(=O)N1CCc2ccccc2C1 (configuration not stated)	108	119	-5	-11
CCOC(=O)c1cnc2c(OC)cccc2c1N1CC(C)CC(C)C1 (configuration not stated)	103	104	-5	-14
CC(C)(C)CC(=O)NC(=S)Nc1ccccc1	101	103	-13	18
O=C(Nc1ccccc1)c1cc2n(n1)C(C(F)(F)F)CC(c1ccco1)N2 (configuration not stated)	101	103	-3	13
N#CCc1nc(-c2ccc(C(F)(F)F)cc2)n[nH]1	102	103	46	-13
NC(=S)NNc1ccc(Cl)c(Cl)c1	95	108	95*	-15
COc1ccc(NC(=O)CNc2ccc(C#N)cc2)cc1	101	98	1	/
O=C(CC1CCCC1)N1CCCC(c2nc3c(nnn3Cc3ccccc3)c(=O)[nH]2)C1 (configuration not stated)	103	102	-9	-20
CCCCNS(=O)(=O)c1cccs1	103	109	-8	-1
N#Cc1c(OCC(F)(F)F)ccc(S(=O)(=O)N2CCCC2)c1OCC(F)(F)F	108	111	-15	-12
O=C(CSc1nc2cc3c(cc2c(=O)n1CCC(=O)N1CCN(c2ccccc2)CC1)OCO3)c1ccccc1	100	102	3	14
COc1cc2c(cc1OC)-c1n[nH]c(=S)n1C(C)(C)C2	104	101	-10	-14

Next section.
SMILES	PV pol inh	PV pol inh intensity	MbtI inh	MenB inh
O=S(=O)(c1ccc(-n2cccn2)cc1)N1CCn2c1nc1ccccc12	102	105	-14	2
O=C(CSc1ncn(-c2ccccc2)n1)Nc1ccc(N2CCOCC2)cc1	101	103	3	-15
Cc1nn(-c2cccc(C(F)(F)F)c2)c2sc(C(=O)NC3=NCCS3)cc12	108	112	17	4
CC1(C)CC(=O)C2=C(C1)Nc1nc(N)[nH]c(=O)c1C2c1ccc(F)cc1 (configuration not stated)	99	104	-1	-3
Cc1ccc(S(=O)(=O)/N=C(\c2ccccc2)n2nnc3ccccc32)cc1	106	94	7	-21
CNC(=S)N1CCCC1C(=O)Nc1ccc(Cl)cc1 (configuration not stated)	102	104	-8	-7
CCSc1nnc(-c2ccc(OC)cc2)n1-c1ccccc1	103	110	-16	/
Cc1ccn2cc(CNS(=O)(=O)c3ccc(Cl)s3)nc2c1	101	109	-8	1
CN(C(=O)c1ccccc1C(=O)O)C1CCCCC1	100	107	-3	-21
COC(=O)Nc1ccc(S(=O)(=O)N(C)CC(F)(F)C(F)F)cc1	99	106	-5	-15
CCc1cccc(NC(=O)CC(=O)Nc2ccc3nc4n(c(=O)c3c2)CCCCC4)c1	103	106	0	-3
Cc1cc(=O)[nH]c(SCC(=O)N2CCc3ccccc32)n1	100	104	-6	5
COc1ccc(NC(=S)NC(=O)COc2ccccc2)cc1	103	100	/	1
O=C(O)CC1(CC(=O)Nc2ccc(Br)cc2)CCCC1	102	105	-15	-9
CC(=O)N1CCN(C(=O)COc2ccc(C#N)cc2)CC1	100	91	3	/
COc1ccc(C2N3CC(C)(C)CN23)cc1OC (configuration not stated)	100	101	7	-14
CC1CCN(C(=O)CN2C(=O)c3ccccc3S2(=O)=O)CC1	99	102	-7	3
CCNC(=S)Nc1ccc(N2CCCCC2)cc1	91	91	78	-5
Cc1ccc(S(=O)(=O)N2CCN(C/C=C/c3ccccc3)CC2)c(C)c1C	102	108	-9	-11
CSc1cccc(NS(=O)(=O)c2ccc(-n3cccn3)cc2)c1	99	102	-1	-7
Cc1cccc(Oc2ccc(N3C(=O)C4C5C=CC(C5)C4(C)C3=O)cc2)c1C (configuration not stated)	100	94	13	-27
O=C(NC1CC1)c1ccc2c(c1)N(Cc1ccccc1)C(=O)CS2	99	103	5	16
CN(C)CC(=O)Nc1ccc(Cl)cc1	102	105	-9	-14
CCc1c2c(nn1-c1cc(Cl)ccc1OC)CCCC2=O	101	96	/	-26
COc1cccc(NC2=NCCCCC2)c1	102	101	-13	/
COCCNS(=O)(=O)c1ccc2c(c1)Cc1cc(S(=O)(=O)NCCOC)ccc1-2	102	106	13	-25
COc1ccccc1NC(=O)C1CC(=O)NC(=Nc2ccc(C)cc2)S1 (configuration not stated)	103	99	2	-28
c1cc2c(cc1C1CCCN1)OCCCO2 (configuration not stated)	103	109	3	-5
Cc1ccc(OC(C)C(=O)N(C)c2ccccc2)cc1 (configuration not stated)	102	101	-10	-9
CC1CCCN(Cc2cn3c(-c4cccc(Br)c4)nnc3s2)C1 (configuration not stated)	106&102	112&98	7	7
CCOC(=O)c1sc(NC(=O)CSc2nnc(Cn3nnc4ccccc43)n2C)nc1C	100	101	-4	-4
COc1ccc(-c2ccc(=O)[nH]n2)cc1OC	101	99	-13	9
COc1ccccc1C(=O)Nc1cnn(Cc2ccccc2C)c1	101	102	-6	-17
Cc1cc(-c2noc(-c3cccc(F)c3)n2)c2ccccc2n1	101	104	2	9
O=C(/C=C/c1c(Cl)nc2ccccn12)N1CCCCC1	107	111	19	-16
COc1cccc(NC(=O)COC(=O)CC23CC4CC(CC(C4)C2)C3)c1	104	104	-11	/
CC1CC(OCC(O)C[N+]2(C)CCOCC2)CC(C)(C)C1 (configuration not stated)	101	106	-2	/
NC(=O)c1ccc(CC(=O)c2ccc(Cl)cc2)cc1	109	117	23	7
COc1ccccc1Nc1ncc(C(=O)NCCc2ccc(OC)c(OC)c2)c2ccccc12	101	101	100	-7
COC(=O)COc1cc(C)ccc1C	108	113	/	-19

7 compounds from above, limited to PV pol inh intensity and PV pol inh.
Compound	PV pol inh intensity	PV pol inh
COC(=O)COc1cc(C)ccc1C	113	108
CCOC(=O)c1sc(NC(=O)CSc2nnc(Cn3nnc4ccccc43)n2C)nc1C	101	100
COc1cccc(NC(=O)COC(=O)CC23CC4CC(CC(C4)C2)C3)c1	104	104
COc1ccccc1NC(=O)C1CC(=O)NC(=Nc2ccc(C)cc2)S1 (configuration not stated)	99	103
O=C(NC1CC1)c1ccc2c(c1)N(Cc1ccccc1)C(=O)CS2	103	99
COc1cccc(NC2=NCCCCC2)c1	101	102
COCCNS(=O)(=O)c1ccc2c(c1)Cc1cc(S(=O)(=O)NCCOC)ccc1-2	106	102

New compounds follow
SMILES	PV pol inh	PV pol inh intensity	MbtI inh	MenB inh
CCn1c2ccccc2c2nnc(N3CCc4ccccc4C3)nc21	102	108	-12	-5
Cc1ccc(CNC(=O)C2CNc3cc(C)ccc3O2)cc1 (configuration not stated)	103	107	-9	-13
COc1ccccc1/C=C(/C(=O)O)c1ccccc1	102	106	-1	/
O=S(=O)(/N=C/c1cccnc1)c1cccs1	101	101	3	7
O=C1/C(=C/c2ccc(F)c(F)c2)CCC/C1=C\c1ccc(F)c(F)c1	101	102	10	-32
O=S1(=O)CCC(Cc2nc3ccccc3[nH]2)C1 (configuration not stated)	100	106	6	-15
COc1ccc(OCCSc2nnc(C(F)(F)F)n2N)cc1	105	109	-9	-20
Cc1ccc(CCn2c(C)c(C)c3ccccc32)cn1	97	95	1	-20
Cc1ccc(-n2nc3c(c2NC(=O)Cc2ccccc2)CSC3)c(C)c1	99	98	-13	-2
CCCCCC(O)c1cccc(OCc2ccc3ccccc3n2)c1 (configuration not stated)	101&100	101&100	-2	-3
CCNS(=O)(=O)c1ccc(NC(=O)Nc2cccc(Cl)c2Cl)cc1	100	104	-17	-17
COc1cccc(Nc2nnc(-c3cc4cccc(OC)c4oc3=O)s2)c1	104	102	4	9
COCCn1c(C)cc(/C=C2\C(=O)Nc3cc(Cl)ccc32)c1C	108	105	1	-129
CS(=O)(=O)Nc1ccc(/C(N)=N/O)cc1	105	102	-7	11

Complete entries, quoted from the list. Order of values: PV pol inh | PV pol inh intensity | MbtI inh | MenB inh
`COc1ccccc1/C=C(/C(=O)O)c1ccccc1` as listed: 102 | 106 | -1 | /
`COc1ccc(OCCSc2nnc(C(F)(F)F)n2N)cc1` as listed: 105 | 109 | -9 | -20
`CS(=O)(=O)Nc1ccc(/C(N)=N/O)cc1` as listed: 105 | 102 | -7 | 11
`COCCn1c(C)cc(/C=C2\C(=O)Nc3cc(Cl)ccc32)c1C` as listed: 108 | 105 | 1 | -129

Among those listed so far, these have bromine:
SMILES	PV pol inh	PV pol inh intensity	MbtI inh	MenB inh
O=C(O)CC1(CC(=O)Nc2ccc(Br)cc2)CCCC1	102	105	-15	-9
CC1CCCN(Cc2cn3c(-c4cccc(Br)c4)nnc3s2)C1 (configuration not stated)	106&102	112&98	7	7
